# RanGTP-Imp inh – inhibitors of RanGTP-importin-beta interaction, primary screen, biochemical, FRET, CFP-Ran, YFP-importin-beta, homogeneous | cell-free CFP-Ran/YFP-importin-beta FRET ratio | inhibition, % (no concentration beside the values) | 1.1% of 300,000 active | AID 2216;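 active means most replicates above 15%; inconclusive means exactly half above 15%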;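 further: 0% = DMSO wells and 100% = Ran loaded with GDP instead of GTP; wells of about 40 µL received 100 nL stock; the first replicate is given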
# LANA-H2B inh – blocks KSHV LANA binding to histone H2A/H2B | cell-free LANA-H2A/H2B peptide, fluorescence polarization | Q9QR71 | 0.6% of 320,000 active | inhibition, % (no concentration beside the values) | AID 2629; in the data active means inhibition mostly above about 10%, no sharp cut-off; inactive means mostly below about 6.7%;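 further: stock transfer was 7.5 nL into about 10 µL; 0% = median of vehicle wells and 100% = median of positive control wells; one replicate is shown; the record names a cut of 25% in any replicate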
# HNF4A DNA FP – change in binding of human HNF4 alpha to DNA; HNF4a-FITC DNA binding, fluorescence polarization, 1 h; activity change, % at 10 µM; 0.3% of 360,000 active; AID 1224865; in the data active means activity change above about 30%, passing the limit was not always enough;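 further: controls were the assay level and a saturating level of protein; the project sought stronger binding though the title names inhibitors; some compounds called inactive have numbers as strong as hits; positive values seem to mean higher polarization but the record does not say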
# Target sequence (P41235 whole entry, looked up): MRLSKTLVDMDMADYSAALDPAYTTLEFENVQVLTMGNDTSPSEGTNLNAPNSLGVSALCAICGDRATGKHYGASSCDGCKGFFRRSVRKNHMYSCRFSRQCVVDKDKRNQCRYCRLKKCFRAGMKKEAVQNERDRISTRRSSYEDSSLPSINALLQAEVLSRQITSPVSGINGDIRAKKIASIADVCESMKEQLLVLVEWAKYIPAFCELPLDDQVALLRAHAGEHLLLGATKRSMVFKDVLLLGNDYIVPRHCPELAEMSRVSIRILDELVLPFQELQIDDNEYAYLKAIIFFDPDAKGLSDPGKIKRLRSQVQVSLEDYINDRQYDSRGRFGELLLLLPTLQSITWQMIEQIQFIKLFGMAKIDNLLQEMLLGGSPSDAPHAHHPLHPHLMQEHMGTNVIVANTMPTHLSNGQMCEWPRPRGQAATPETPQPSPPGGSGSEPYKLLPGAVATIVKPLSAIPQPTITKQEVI
# Calb FLC – affects C. albicans growth with fluconazole. C. albicans CaCi-2 (fluconazole-resistant clinical isolate) + fluconazole, Alamar Blue growth, 48 h. growth inhibition, % (concentration not given with the values). 0.57% of 300,000 active. AID 1979;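 active means most replicates above 75%; inconclusive means exactly half above 75%; inactive means most below 75%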;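 further: all wells also contain fluconazole at 8 µg/ml as a sub-toxic cotreatment; 0% = median of DMSO wells and 100% = median of geldanamycin control wells; wells of about 8 µL received 7.5 nL stock; the first replicate is given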
# ALR H2O2 inh – human ALR oxidase inhibition via reduced H2O2; 3.8% of 290,000 active; P55789; purified ALR, DTT oxidation, H2O2 HRP-luminol luminescence; inhibition, % (no concentration beside the values);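 active means mean and each replicate at 75% or more; inconclusive means only one of the two met; inactive means neither met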;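 further: stock transfer was 7.5 nL into about 7.5 µL; 0% = neutral wells and 100% = wells with inactivated enzyme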
# Target sequence (P55789 whole entry, looked up): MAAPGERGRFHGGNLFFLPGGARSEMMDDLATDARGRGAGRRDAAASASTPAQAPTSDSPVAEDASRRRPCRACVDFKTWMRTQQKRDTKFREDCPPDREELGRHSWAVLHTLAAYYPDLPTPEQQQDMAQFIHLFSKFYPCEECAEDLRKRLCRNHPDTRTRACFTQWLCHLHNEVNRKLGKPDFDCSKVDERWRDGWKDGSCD
# Vif A3G – HIV-1 Vif–A3G interaction blockers – biochemical, TR-FRET, GST-Vif 1-94, biotin-A3G peptide, dose response retest, primary screen (AID 1117319); TR-FRET GST-Vif / biotin-A3G peptide binding; higher % means a stronger effect; test concentration not given here; strong numbers were not always called active; one-dose inhibition, %; IC50 in µM for titrated hits; 0.57% of 260,000 active;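 active means above the screen mean plus three standard deviations and confirmed in dose response; inconclusive means results disagree or hit not tested in dose response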;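 further: Vif residues 1-94 fused to GST binding biotinylated APOBEC3G peptide 110-148; 0% = full assay without inhibitor and 100% = GST in place of GST-Vif; retest series ran down from 100 µM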
# Beta2AR agonist – activates human beta-2 adrenergic receptor causing internalization | Am2.2-beta2AR cells, FAP receptor internalization, flow cytometry; reference of the scale not given here | 0.43% of 340,000 active | AID 504454 | response, % (concentration not given with the values) | P07550;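 active means response above a set limit, near 3 SD of response in nonfluorescent compounds, cut at about 42% in these data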;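 further: stock transfer was 100 nL into about 11 µL; a reference agonist was the positive control; negative values mostly stem from fluorescent compounds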
# Target sequence (P07550 whole entry, looked up): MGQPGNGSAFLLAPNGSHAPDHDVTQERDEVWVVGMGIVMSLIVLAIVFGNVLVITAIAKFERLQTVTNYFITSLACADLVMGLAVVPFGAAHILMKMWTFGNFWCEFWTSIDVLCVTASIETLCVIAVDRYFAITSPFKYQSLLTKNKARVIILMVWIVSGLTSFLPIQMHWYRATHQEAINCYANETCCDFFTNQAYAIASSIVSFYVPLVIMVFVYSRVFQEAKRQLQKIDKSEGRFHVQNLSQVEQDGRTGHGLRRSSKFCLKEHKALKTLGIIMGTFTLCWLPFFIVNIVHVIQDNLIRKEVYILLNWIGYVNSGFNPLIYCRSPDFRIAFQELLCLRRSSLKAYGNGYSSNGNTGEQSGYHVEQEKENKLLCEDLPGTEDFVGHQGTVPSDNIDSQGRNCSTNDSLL
# Numbers without * were called inactive; ? = inconclusive; nt = no result given. Compounds were not picked by outcome, and some 6.3% of all compounds hit somewhere here.
SMILES,RanGTP-Imp inh,LANA-H2B inh,HNF4A DNA FP,Calb FLC,ALR H2O2 inh,Vif A3G,Beta2AR agonist
CC(C)(CO)NC(=O)C(c1ccccc1)c1ccccc1,1.0,2.8,3.4,-12,-2,3%,21
Fc1ccccc1Cn1nnc2c(-n3ccnc3)ncnc21,3.5,6.3,2.5,-3,-16,-6%,-7
Cc1ccc(-c2nn(-c3ccccc3)cc2/C=C/C(=O)OCC(=O)NC2CC2)o1,nt,-6.6,1.9,-5,1,-9%,-26
CC(C)N(C(=O)CSc1nnc(NC(=O)c2ccco2)s1)C(C)C,-0.5,0.1,-2.5,5,0,nt,-2
Cc1cc(-c2ccccc2)nc(N/N=C/c2ccc(O)cc2O)n1,0.8,-2.8,3.0,63,66,nt,14
OC(COCc1ccccc1)CN1CCN(Cc2ccc3c(c2)OCO3)CC1 (centres undefined),nt,3.9,0.5,-33,-3,nt,-5
CC(C)Oc1ccc(/C=N/NC(=O)C(CSCc2ccccc2)NC(=O)c2ccc([N+](=O)[O-])cc2)cc1 (centres undefined),0.1,-3.1,9.3,-2,-22,7%,-4
C/C(=N\OC(=O)c1ccc(F)cc1)c1ccc(F)c(F)c1,0.8,-4.4,-1.1,-3,-5,-2%,-1
COc1ccc(-c2c(C(C)=O)c(C)n(C)c2C)cc1,2.4,-0.9,-3.1,-16,0,2%,2
c1ccc(OCCN2CCOCC2)cc1,-0.9,-2.4,-1.6,1,-4,nt,1
COc1ccc(C(=O)Nc2nnc(C)s2)cc1S(=O)(=O)N1CCOCC1,nt,-1.0,-1.9,nt,-1,-1%,-5
c1cc2c3c(cccc3c1)C(N1CCCCCC1)=N2,23*,-0.7,0.8,25,-35,6%,-5
COc1ccc(NC(=O)COc2ccc(/C=C/c3cccc[n+]3C)cc2OC)cc1,2.4,5.3,3.9,-23,-8,nt,5
O=C(Nc1cccc(CCc2ccccn2)c1)c1ccc(Cl)cc1,1.4,7.6,nt,?,-17,nt,nt
CCOC(=O)c1ccc(NC(=S)Nc2cc(C)cc(C)n2)cc1,-0.9,2.2,-2.2,-8,-10,nt,-5
Cc1ccccc1NC(=O)N1C2CCC1CC(O)(c1cccnc1)C2 (centres undefined),2.1,1.4,0.3,0,-21,3%,2
CN(C)CCC(O)c1ccccc1 (centres undefined),-3.1,2.9,1.4,-12,-1,8%,-1
CCn1c(SCc2nc3ccccc3s2)nnc1-c1ccccc1,0.9,9.1,3.9,-2,94*,-3%,-9
CCc1ccc(CC2(O)CC(C)N(C)CC2C)cc1 (centres undefined),-1.9,-6.6,0.9,-11,0,2%,-2
CCOc1cc(/C=C/C(=O)OCC(=O)NC2CCS(=O)(=O)C2)ccc1OCc1ccccc1 (centres undefined),nt,0.0,2.2,-2,-3,3%,2
c1ccc2c(C[C@@H]3CNCCN3CCCCC3CCCCC3)cccc2c1,nt,-2.1,6.8,nt,-26,nt,2
Cc1c(C=O)c2ccccc2n1CC(=O)NCc1ccc2c(c1)OCO2,?,4.4,2.4,-24,1,-16%,-6
CCOc1ccccc1N1CC(C(=O)Nc2cc(S(C)(=O)=O)ccc2Cl)CC1=O (centres undefined),?,4.7,1.6,-7,-12,-2%,3
O=C(c1cccc(Oc2ccccc2)c1)N1CCOCC1,2.6,9.6,0.2,0,4,0%,-7
C=CCOc1ccccc1C(=O)/C=C1/C(=O)Nc2ccccc21,1.1,-3.8,6.1,-14,nt,-9%,-6
# Continued:
SMILES,RanGTP-Imp inh,LANA-H2B inh,HNF4A DNA FP,Calb FLC,ALR H2O2 inh,Vif A3G,Beta2AR agonist
COc1ccc(C(=O)Nc2ccc(NC(=O)c3ccco3)c(Cl)c2)cc1OC,1.4,3.6,-1.3,?,-4,?,-3
Cn1c(=O)c(=O)n(C)c2cc(S(=O)(=O)N3CCc4ccccc43)ccc21,1.5,-22,43*,1,-10,5%,-35
Cc1cccc(C)c1NC(=O)CCS(=O)(=O)c1cccc2nsnc12,?,-0.7,-3.2,3,-21,69%,2
FC(F)(F)c1cccc(OCCN2CCN(Cc3ccccc3)CC2)c1,0.4,-3.6,1.8,-21,3,nt,-3
Cc1cc(C)n(-c2cccc(F)n2)n1,5.3,-1.0,0.8,-3,8,3%,-8
COc1ccc(Nc2nc(N)c([N+](=O)[O-])c(NC3CCCCC3)n2)cc1,-5.0,1.8,-1.4,8,-8,nt,17
C=CCNC(=O)c1ccccc1NS(=O)(=O)c1ccc(OC)c(C(=O)N2CCOCC2)c1,3.1,-5.6,-4.0,2,nt,nt,5
Cc1cc(CNC(=O)c2ccc(C)c([N+](=O)[O-])c2)c2ccccc2n1,1.8,1.7,-1.4,-6,-2,6%,6
Nc1nonc1N/N=C/c1c(O)ccc2ccccc12,-3.1,-5.8,-3.4,?,-22,-7%,4
CC(C)Nc1nc(-c2ccccn2)nc(-c2ccccc2)c1C#N,4.0,-0.1,1.4,-2,0,-4%,-24
COc1nc(Nc2ccc(-c3nc4ccccc4o3)cc2)nc(N2CCOCC2)n1,5.7,-1.0,-1.3,3,-7,nt,15
Cn1c(=O)c2c(nc(NCCO)n2C)n(C)c1=O,-1.6,3.5,1.8,8,2,-3%,0
C#CC[N+]1(CC#Cc2cccc(C)c2)CCCCC1,-6.3,6.8,2.8,14,-15,nt,2
CCN(CC)S(=O)(=O)c1ccc(C)c(NC(=O)CNCc2ccccc2OC)c1,0.5,-0.5,0.5,-6,nt,-3%,7
Cc1ccc(C(=O)COC(=O)CNC(=O)c2ccc(Br)o2)cc1[N+](=O)[O-],-0.2,2.7,-2.3,-3,1,8%,0
COCc1cc(C)nc(SCC(=O)Nc2cc(C(F)(F)F)ccc2N2CCOCC2)c1C#N,-1.4,-1.5,2.7,26,nt,nt,20
Cn1c(CN2CCN(CCO)CC2)c(C#N)c2ccccc21,5.1,2.2,-0.1,33,-1,-3%,-4
COc1cc(OC)cc(C(=O)N[C@@H](CCSC)c2nc3ccccc3[nH]2)c1,-3.4,-0.3,-0.1,1,-10,0%,-13
Cc1ccc(S(=O)(=O)N(C)C)cc1NC(=O)COC(=O)c1ccc2c(c1)OCO2,2.9,2.7,-1.3,-3,-6,nt,-6
Cc1ccc(/C=N/c2sc3c(c2C#N)CCCCC3)o1,-5.4,9.8,-1.2,-3,68,?,9
Cc1ccccc1C(=O)Nc1ccc(N2CCOCC2)nc1,1.6,-6.5,0.0,16,-12,-3%,2
COC(C)(C)[C@H](O)COc1c2ccoc2cc2oc(=O)ccc12,0.4,-3.1,-3.5,-3,5,-9%,11
COc1ccccc1N(CC(=O)N1CCCC1)S(=O)(=O)c1ccc(C)cc1,1.7,-1.3,1.9,4,nt,nt,1
C=CCOC(=O)C1=C[C@@H](c2ccccc2)C[C@@H](OCc2ccc(CO)cc2)O1,7.1,3.4,-1.2,-5,-4,nt,-8
O=C(Oc1ccc(Br)cc1C(=S)N1CCCC1)c1ccccc1Cl,-0.5,-0.1,1.1,3,-7,-10%,4
# (cont.)
SMILES,RanGTP-Imp inh,LANA-H2B inh,HNF4A DNA FP,Calb FLC,ALR H2O2 inh,Vif A3G,Beta2AR agonist
Cc1ccc(C)c(S(=O)(=O)NCc2ccc3c(c2)OCO3)c1,-1.7,-1.6,-3.0,2,-7,nt,-6
Cc1nc(-c2cccc(NC(=O)c3cccs3)c2)cs1,-1.7,4.8,0.0,3,15,6%,6
CNC(=O)c1ccc(NC(=O)c2cc(S(=O)(=O)N(C)C)ccc2N2CCCC2)cc1,nt,-2.5,-4.2,nt,-5,-11%,0
O=C(C(=O)N1CCN(c2ccccc2Cl)CC1)c1c[nH]c2ccccc12,0.7,-1.9,-9.8,5,-3,nt,-4
c1ccc(-c2noc(C34CC5CC(CC(C5)C3)C4)n2)nc1,8.8,-3.4,-4.7,0,-3,17%,-12
CCOc1ccccc1NC(=O)COC(=O)C(CC)c1ccccc1 (centres undefined),nt,-5.4,0.0,nt,2,-12%,-6
COC(=O)Cc1cc(=O)n(-c2nc3ccccc3[nH]2)[nH]1,?,-5.4,0.7,37,59,22µM*,-6
CC(C)CN(C(=O)COc1ccc([N+](=O)[O-])cc1)c1c(N)n(CC(C)C)c(=O)[nH]c1=O,nt,5.3,5.9,nt,1,0%,2
COc1ccc(CNC(=O)COc2ccccc2C(=O)c2cnn(-c3ccccc3)c2)cc1OC,nt,nt,0.9,nt,nt,6%,20
N#CCCN(C(=O)COC(=O)c1ccc(S(=O)(=O)N2CCCC2)cc1)c1cccc(Cl)c1,nt,1.1,5.3,nt,-3,3%,2
O=C(N/N=C\c1ccc(Sc2ccccn2)o1)c1cccc(Br)c1,0.1,1.7,-0.2,-20,nt,20%,3
O=C(O)CSCCCC(=O)Nc1ccc(Br)cc1,3.8,-1.3,-1.7,4,-2,?,8
CCC1Oc2ccccc2N(CC(=O)NCCCN2CCOCC2)C1=O (centres undefined),7.2,2.2,0.3,-3,2,nt,-1
Cc1ccc(CSc2ccc(-c3ccco3)nn2)cc1,-0.4,-0.5,-2.2,-1,49,nt,-13
O=c1c[n+]([O-])c2ccccc2n1OCc1c(F)cccc1F,-2.4,-1.2,0.8,2,0,21%,2
CN1CCC(N(C)C(=O)c2cccc(S(=O)(=O)N3CCOCC3)c2)CC1,nt,-1.7,4.9,nt,nt,-11%,-1
N/C(Cc1ccc([N+](=O)[O-])cc1)=N\OC(=O)COc1cccc2ccccc12,2.7,-3.9,-0.7,-12,-8,7%,-4
Cc1cc(C)c2c(N)c(C(=O)c3ccc(Br)cc3)oc2n1,-1.9,-1.6,-1.7,22,2,-1%,-2
O=C(COC(=O)/C=C/c1ccco1)NCc1ccc(Cl)cc1,nt,6.1,1.9,nt,1,10%,-3
O=C(Nc1nc2c(s1)CCCC2)c1ccc(Br)s1,-3.3,-1.0,-1.2,-22,98*,-3%,7
O=C(CSc1nc2ccc(NC(=O)CSc3nnnn3Cc3ccccc3)cc2s1)Nc1ccccc1,1.2,-3.6,1.2,-7,nt,2%,5
COc1ccc(O)c(/C=N/N=C2/C(=O)Nc3ccccc32)c1,1.4,0.0,0.2,39,nt,3%,5
COc1ccc(C(O)c2nc3ccccc3n2C)cc1OC (centres undefined),-2.2,0.8,-0.5,-21,-5,1%,-5
COc1ccc(OC)c(-c2cc(C(=O)Nc3c(C)nn(Cc4ccccc4)c3C)no2)c1,?,1.0,1.8,3,2,?,-2
COc1cccc(-c2nn(C)c3sc(C(=O)NCc4ccco4)cc23)c1,10,2.6,-2.9,-1,0,26%,15

# With a hit mark in HNF4A DNA FP (from the list above):
SMILES,RanGTP-Imp inh,LANA-H2B inh,HNF4A DNA FP,ALR H2O2 inh,Vif A3G,Beta2AR agonist
Cn1c(=O)c(=O)n(C)c2cc(S(=O)(=O)N3CCc4ccccc43)ccc21,1.5,-22,43*,-10,5%,-35

# (next part)
SMILES,RanGTP-Imp inh,LANA-H2B inh,HNF4A DNA FP,Calb FLC,ALR H2O2 inh,Vif A3G,Beta2AR agonist
COCC(C)n1c(C)cc(C(=O)Cn2nc(C(=O)O)c3ccccc3c2=O)c1C (centres undefined),-0.7,6.9,-0.5,-10,nt,1%,-1
Cc1nc(N2CCCCC2)sc1C(=O)c1cccc([N+](=O)[O-])c1,1.3,12,1.4,8,14,-8%,-27
Cc1ccc(/C=N/NC(=O)CSc2nc3ccccc3n2Cc2ccc(Cl)cc2)o1,1.5,-2.0,2.7,17,-5,8%,2
CNC(=O)c1c[nH]c2ccc(S(=O)(=O)Nc3ccccc3F)cc2c1=O,-0.4,-1.3,3.6,-6,-20,2%,6
Cn1c(=O)c2c(SCC(=O)N3CCCCC3)nc(-c3ccccc3F)nc2n(C)c1=O,2.5,-3.8,-5.0,-3,6,nt,1
Cc1ccc(Nc2c(-c3ccc(N4CCOCC4)cc3)nc3ncccn23)c(C)c1,5.7,-4.4,5.2,2,nt,0%,-8
Cc1ccc(C(=O)OCC(=O)N2CCC(c3ccccc3)=N2)c(C)c1,-3.5,0.9,2.2,-6,-3,-3%,10

# High-throughput results from PubChem BioAssay.
